Source: PubChem
CDC25B CDK2 inh: human CDC25B-CDK2/CyclinA binding inhibition. 94,000 tested, 0.72% active. HTRF CDC25B-CDK2/CyclinA binding, anti-His/anti-Flag; active compounds read high. z-score (no concentration beside the values). AID 1259370;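 further: score is relative to mean and SD of negative controls; strong numbers were not always called active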
TAR Tat displ: HIV-1 TAR-Tat binding disruption; 100,000 tested, 0.6% active; z-score (concentration not given with the values); HIV-1 TAR RNA, Tat peptide displacement FRET; active compounds read high;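 further: score is relative to mean and SD of negative controls; some compounds called inactive have numbers as strong as hits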
* marks the source's active call; other numbers are inactive results; . = not tested or not shown.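 How the source made its calls: active means z-score from 3 up in half or more of its runs; inactive means the rest.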

SMILES	CDC25B CDK2 inh	TAR Tat displ
Cc1ccn2c(=O)c(NC(=O)Cc3ccccc3)c(C)nc2c1	.	1.86
Cc1ccc(S(=O)(=O)N2CCN(S(=O)(=O)c3ccccc3)C2C(C)C)cc1 (configuration not stated)	-0.72	0.61
O=C(c1ccncc1)N1c2ccccc2Sc2ccccc21	0.17	-0.9
Cc1ccc(S(=O)(=O)c2nnn3c2nc(NCCCOC(C)C)c2sccc23)cc1	.	-0.6
CCCCn1c(C2CC(=O)N(c3ccccc3F)C2)nc2ccccc21 (configuration not stated)	-2.01	0.51
CCc1nnc(SCC(=O)Nc2ccc(F)c(Cl)c2)c2cc3oc(C)cc3n12	.	0.25
CCOc1ccc(N2CCCn3c2nc2c3c(=O)n(CC(=O)O)c(=O)n2C)cc1	-1.16	0.52
CC1CCc2nn(CC(=O)Nc3ccc4c(c3)OCO4)c(=O)cc2C1 (configuration not stated)	.	2.31
Cc1ccc(-c2nc(NC(=O)CSc3nc(C)cc(C)c3C#N)ns2)cc1	0.04	-4.11
CCCCNC(=O)C1Cc2ccccc2N1C(=O)CC (configuration not stated)	.	0.5
COC(=O)CN1C(=O)CCSc2ccccc21	0.38	1.42
CN(C)/C=C1\N=C(SCc2c(Cl)cccc2Cl)NC1=O	-1.97	.
NC(=O)c1cccc2c1OCCO2	-1.83	.
O=C(NCc1ccco1)c1cnn2c3c(cnc12)CCCC3	.	0.16
O=C(C1=C(N2CCN(Cc3ccccc3)CC2)c2ccccc2S1(=O)=O)N1CCOCC1	.	1.05
COc1ccc(/C=C/c2nc(-c3ccccc3O)n(S(=O)(=O)N(C)C)n2)cc1OC	0.5	-1.37
Clc1cc(Br)ccc1N=Cc1cccnc1	-1.99	.
COc1ccc(CN[C@H]2CS(=O)(=O)C[C@@H]2S(=O)(=O)c2ccccc2)cc1	-0.53	-0.69
O=C(CNC1Cc2ccccc2C1)Nc1ccccc1N1CCOCC1	-2.21	.
O=c1[nH]c2ccc(NS(=O)(=O)c3cccs3)cc2o1	.	0.58
CC(C)CNc1oc(-c2ccc(S(=O)(=O)N3CCc4ccccc4C3)cc2)nc1C#N	-0.59	0.36
O=C(CCCn1c(=O)[nH]c2ccsc2c1=O)NC1CCCCC1	-0.53	0.72
COC(=O)c1c(C)sc(-c2c(-c3ccc4c(c3)OCO4)[nH]c3c2c(=O)n(C)c(=O)n3C)c1O	-2.39	2.7
O=C(CC1=NS(=O)(=O)c2ccccc2N1)Nc1ccc(F)cc1	.	-0.3
O=C(Nc1ccccc1N1CCOCC1)NC1CCN(C(=O)OCc2ccccc2)CC1	-2.22	.
N#Cc1c(F)cccc1N1CCC(C#N)CC1	-1.37	.
Cc1ccc2c(=O)cc(C(=O)Nc3c(C(=O)c4ccccc4)oc4ccccc34)oc2c1	-2.24	1.3
O=c1oc(-c2cccs2)ns1	-1.04	.
CCCCNC(=O)CCCc1nc(-c2cccs2)no1	0.83	1.24
Cc1ccc2c(c1)NC(SCc1ccc(F)cc1Cl)=NS2(=O)=O	.	1.35
CN(C1CCCCC1)C1CCN(S(=O)(=O)c2ccc(-c3ccc(=O)[nH]n3)s2)CC1	.	0.43
COc1ccc(C2C3=C(CC(C)(C)CC3=O)Nc3nc4ccccc4n32)cc1 (configuration not stated)	-1.25	0.72
CCOC(=O)c1c(NC(=O)c2cc(=O)c3cc(CC)ccc3o2)sc(C)c1C	-1.71	3.5
Cn1c(=O)n(C)c2cc(S(=O)(=O)N(Cc3ccco3)C(=O)c3cccnc3)ccc21	0.36	-0.95
CC(=O)N1N=C(c2cccc(NS(C)(=O)=O)c2)CC1c1ccccc1C (configuration not stated)	-1.4	.
Cc1cc2c(cc1S(=O)(=O)N1CCC(C)CC1)OCCN2C	.	1.89
COc1ccc(Br)cc1C1NC(C(=O)O)CS1 (configuration not stated)	-2.63	.
CN1CCN(CCCNC(=O)CCC(=O)N2CCOc3ccc(Cl)cc32)CC1	-0.83	-0.23
CCc1ccc(-c2cc(C)no2)cc1S(=O)(=O)Nc1ccc(Cl)cc1	.	-0.7
Cn1c(=O)oc2cc(S(=O)(=O)N3CCC(C(=O)N4CCC(N5CCCCC5)CC4)CC3)ccc21	-1.52	2.68
Cc1ccc(C)c(Cn2c(C)c(CNCCCN3CCCC3=O)c(C(=O)O)c2C)c1	1.02	-0.7
Cc1c(C(=O)N2CCN(c3ccccc3)CC2)oc2ccc3c(c12)C(O)CC1(CCCCC1)O3 (configuration not stated)	.	1.74
O=C1CC(c2ccco2)Cc2nc(NC3CCCC3)ncc21 (configuration not stated)	-0.47	.
CC(C)CN1CC(O)=C(c2nc3ccccc3c(=O)[nH]2)C1=N	-0.18	0.22
COc1ccc(NC(=O)N2CCN(c3nc4cc(F)ccc4n4cccc34)CC2)cc1OC	2.29	0.58
O=C(Nc1ccccc1Cl)c1nc(N2CCCC2)c2ccccc2n1	.	1.7
Cc1ccc(S(=O)(=O)N2CCN(S(=O)(=O)c3ccc(F)cc3)CC2)cc1	-1.42	.
CCOC(=O)C1=NNC2C(=O)N(c3ccccc3C)C(=O)C12 (configuration not stated)	-0.93	-2.22
CC1CCN(S(=O)(=O)N2CCCC(C(=O)NC3CCCCC3)C2)CC1 (configuration not stated)	.	1.48
COc1cccc(N2C(=O)c3cccnc3C2Nc2c(Cl)cc(OC)cc2OC)c1 (configuration not stated)	.	-0.49
(further entries)
SMILES	CDC25B CDK2 inh	TAR Tat displ
Clc1ccc(C=NCc2cccnc2)c(Cl)c1	0.36	.
CCc1ccc(C2c3c(oc4ccc(F)cc4c3=O)C(=O)N2c2nc(C)c(C)s2)cc1 (configuration not stated)	0	-2.94
COc1cccc(C2/C(=C(\O)c3ccccc3)C(=O)C(=O)N2c2nc3ccccc3s2)c1 (configuration not stated)	-0.97	0.06
CCOc1ccc(NC(=O)NCc2c(-n3cccc3)sc3c2CCCC3)cc1	-0.84	3.71
CCCCC(=O)N(c1ccc2oc(=O)sc2c1)S(=O)(=O)c1ccc(OC)c(OC)c1	-5.61	-0.26
Cn1cc([N+](=O)[O-])cc1C(=O)N1CCCC1	.	0.81
CCn1c(CC2C(=O)N(C(C)C)c3ccc(C)cc32)nc2ccccc2c1=O (configuration not stated)	-0.97	0.45
COc1ccc(-c2nc3c(C#N)c[nH]n3c2NC2CCCCC2)c(OC)c1	-0.49	1.1
O=C(CN1CCN(c2ccccc2)CC1)Nc1c2c(nc3c1CCC3)CCCC2	-0.31	-0.55
COc1ccc2nc3oc(C(=O)NCc4cc(Br)ccc4OC)cc3cc2c1	-1.77	.
C=CCN1C(=O)C(O)(CC(=O)c2ccc3c(c2)OCCO3)c2ccccc21 (configuration not stated)	-0.83	-0.76
Cc1c(Cl)cccc1NC(=O)C1CC2CSCN2C12C(=O)Nc1ccccc12 (configuration not stated)	.	-1.27
CCOC(=O)c1c(C)n(-c2ccc(N(C)C)cc2)c2ccc(O)cc12	-0.6	2.02
CC12C=CC(O1)C1C(=O)N(c3ccc(N4CCOCC4)cc3)C(=O)C12 (configuration not stated)	0.76	0.81
Cc1c(-c2ccco2)[n+](=O)c2c(n1[O-])CCC2	7.88	.
COc1ccc(-c2nnc(SCC(=O)Oc3cc(C)ccc3C)o2)cc1OC	-6.7	1.41
CCCCN(CCCC)CCn1cnc2c([nH]c3cc(OC)ccc32)c1=O	-2.3	0.81
COc1ccc(S(=O)(=O)NCCc2nnc3ccc(SCC(=O)N4CCCC4)nn23)cc1	.	1.4
Cc1ccc(-c2c(N3CCCCC3)c(=O)c2=O)cc1	.	0.89
CCc1nn(CC(=O)NC(C)CCc2ccco2)c(=O)c2cc3sccc3n12 (configuration not stated)	-2.27	0.96

Arranged by formula weight (falling): 15 of the compounds above
SMILES	CDC25B CDK2 inh	TAR Tat displ
COc1ccc(S(=O)(=O)NCCc2nnc3ccc(SCC(=O)N4CCCC4)nn23)cc1	.	1.4
COc1cccc(C2/C(=C(\O)c3ccccc3)C(=O)C(=O)N2c2nc3ccccc3s2)c1 (configuration not stated)	-0.97	0.06
COc1ccc2nc3oc(C(=O)NCc4cc(Br)ccc4OC)cc3cc2c1	-1.77	.
Cc1c(Cl)cccc1NC(=O)C1CC2CSCN2C12C(=O)Nc1ccccc12 (configuration not stated)	.	-1.27
CCc1nn(CC(=O)NC(C)CCc2ccco2)c(=O)c2cc3sccc3n12 (configuration not stated)	-2.27	0.96
CCOc1ccc(NC(=O)NCc2c(-n3cccc3)sc3c2CCCC3)cc1	-0.84	3.71
O=C(CN1CCN(c2ccccc2)CC1)Nc1c2c(nc3c1CCC3)CCCC2	-0.31	-0.55
CCn1c(CC2C(=O)N(C(C)C)c3ccc(C)cc32)nc2ccccc2c1=O (configuration not stated)	-0.97	0.45
CCCCN(CCCC)CCn1cnc2c([nH]c3cc(OC)ccc32)c1=O	-2.3	0.81
COc1ccc(-c2nc3c(C#N)c[nH]n3c2NC2CCCCC2)c(OC)c1	-0.49	1.1
CC12C=CC(O1)C1C(=O)N(c3ccc(N4CCOCC4)cc3)C(=O)C12 (configuration not stated)	0.76	0.81
CCOC(=O)c1c(C)n(-c2ccc(N(C)C)cc2)c2ccc(O)cc12	-0.6	2.02
Cc1ccc(-c2c(N3CCCCC3)c(=O)c2=O)cc1	.	0.89
Cc1c(-c2ccco2)[n+](=O)c2c(n1[O-])CCC2	7.88	.
Cn1cc([N+](=O)[O-])cc1C(=O)N1CCCC1	.	0.81

New compounds follow.
SMILES	CDC25B CDK2 inh	TAR Tat displ
COc1ccc(OC)c(S(=O)(=O)N2CCN(c3cc(-c4ccccc4)ncn3)CC2)c1	.	1.31
CCSc1ncc(Cl)c(C(=O)Nc2nnc(C(C)C)s2)n1	-0.4	-0.25
COc1cccc(CNc2nc(-c3cccc(OC)c3)no2)c1	.	0.04
Cc1ccc(C)c(N2CCN(c3cnn(-c4ccc(C(=O)O)cc4)c(=O)c3Cl)CC2)c1	-2.4	0.11
CC(=O)n1ccc(-c2ccc(C#Cc3ccccc3)cc2)n1	-1.83	.
COc1ccc(-c2cnc(NCc3ccc(SC)cc3)n2C)cc1	-0.32	2.97
CCOc1ccc(NS(=O)(=O)c2c(C)nc3sc(CC)nn3c2=O)cc1	-0.66	1.74
CC(=O)Nc1cccc(NC(=O)CSc2ncnc3ccccc23)c1	-6.73	.
CS(=O)(=N/C=C(\C#N)S(=O)(=O)c1ccc(C(F)(F)F)cn1)c1ccc(Cl)cc1 (configuration not stated)	-0.74	.
COc1cccc(C2C(C(=O)c3cc4ccccc4o3)=C(O)C(=O)N2CCCN(C)C)c1 (configuration not stated)	-3.44	-0.51
O=C1CSc2ccc(S(=O)(=O)N3CCN(c4ccccn4)CC3)cc2N1	.	0.5
CCOC(=O)C1C(=O)CC(C)(O)C(C(=O)OCC)C1c1cccs1 (configuration not stated)	-1.15	1.2
O=C(CN1C(=O)COc2ccc(S(=O)(=O)N3CCCC3)cc21)NCCC1=CCCCC1	-0.73	0.77
COC(=O)CNC(=O)c1sc2ncn(CC(=O)N3CCCCC3)c(=O)c2c1C	.	-0.29
CN(C)C(=O)c1ccc(Oc2cc(Cl)cc(Cl)c2)o1	-0.34	.
C=CCOC(=O)c1sc(N2C(=O)c3oc4ccccc4c(=O)c3C2c2ccc(C)cc2)nc1C (configuration not stated)	0.34	2.68
CCN(CC)CCNC(=O)C1(O)c2cc(Br)ccc2NC(=O)N1c1ccc(Cl)cc1 (configuration not stated)	0.04	.
CC(=O)Nc1ccc(N2C(=O)C3C4C=CC(CC4)C3C2=O)cc1 (configuration not stated)	-0.92	1.39
NCCCC[C@H](N[C@@H](CCc1ccccc1)C(=O)O)C(=O)N1CCC[C@H]1C(=O)O	.	0.98
CC1C2NC(=S)NC1(C)Oc1ccc(Br)cc12 (configuration not stated)	-1.37	.
C=CCSc1nc(=O)c2c(n1C)NC(=O)CC2c1cc(F)ccc1F (configuration not stated)	0.21	-0.58
Cc1cccc(C)c1NC(=O)Nc1sc2nc3n(c(=O)c2c1C)CCC(C)CC3 (configuration not stated)	-1.87	0.05
Brc1ccc(-n2cc(-c3ccccc3)c3c(NCc4ccccn4)ncnc32)cc1	.	-0.19
Cc1cc(NNS(=O)(=O)c2cc(C(F)(F)F)cc(C(F)(F)F)c2)nc2c1c(C)nn2C	0.1	.
Cn1c(C(=O)N2CCN(c3ccc(Cl)cc3)CC2)cc2sccc21	-1.12	-0.43
O=C(CN1CCSc2ccccc21)NCCCN1CCN(C2CCCCC2)CC1	.	1.35
CCC12CN3CC(CC)(CN(C1)C3c1ccc(C)cc1)C2=O (configuration not stated)	-0.57	.
CCOc1ccc(S(=O)(=O)Nc2c(-n3cnnc3)n[nH]c2C)cc1	-1.61	-0.44
O=C(c1[nH]nc2c1COc1ccccc1-2)N1CCCC1	.	-0.8
Cc1c(NC(=O)CC2CC(C)OC2=O)c(=O)n(-c2ccccc2)n1C (configuration not stated)	0.8	.
CN(Cc1nc(-c2ccccc2)no1)S(=O)(=O)c1ccc(Cl)cc1	1.08	0.77
CCCOCc1cc(CN2CCCCC2)c(O)c2ncccc12	5.97	1.97
Cc1nc2sccn2c(=O)c1S(=O)(=O)NC1CC1	.	0.86
COc1ccc(Nc2cc(N3CCN(c4ccccn4)CC3)ncn2)cc1	-1.09	0.55
COc1cc2ncc(C(=O)c3ccccc3)c(S(=O)(=O)c3ccccc3)c2cc1OC	0.31	1.65
CC1=C(C(=O)Nc2cc(C(=O)N3CCN(c4cc(C)ccc4C)CC3)ccc2C)SCCO1	.	0.93
COc1ccc(C2SCC(=O)N2c2ccc(OC)c(Cl)c2)cc1 (configuration not stated)	-2.74	.
CCC(C(=O)Nc1ccccc1Br)n1c2ccccc2c2nc(=O)cc(C)n21 (configuration not stated)	-1.6	-3.61
O=C(Nc1nc2cc(NS(=O)(=O)c3cccc4nsnc34)ccc2s1)C1CCCCC1	.	1.46
O=C(Nc1cccc2nsnc12)c1cc(-c2ccncc2)nc2ccccc12	.	0.11
CCOCCOC(=O)C1=C(C)NC2=C(C(=O)CC(c3ccccc3)C2)C1c1ccccc1OCC (configuration not stated)	-1.69	0.11
COc1ccc(/C(O)=C2\C(=O)C(=O)N(CCCn3ccnc3)C2c2ccccc2F)cc1 (configuration not stated)	-0.76	1.44

Single records, as listed above. Order of values: CDC25B CDK2 inh | TAR Tat displ
Record of COc1cc2ncc(C(=O)c3ccccc3)c(S(=O)(=O)c3ccccc3)c2cc1OC : 0.31 | 1.65
Record of CCCOCc1cc(CN2CCCCC2)c(O)c2ncccc12 : 5.97 | 1.97
